Source: PubChem (Broad Institute)
DUX4 txn inh: inhibitors of DUX4-driven ZSCAN4 reporter expression, primary screen, 293T cells, Gaussia and Italica luciferase; 293T-iDUX4 ZSCAN4-Gaussia luciferase reporter, 24 h; active compounds read low; activity change, negative = inhibition, % (no concentration beside the values); hit rate 0.8% among 37,000;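 active means -10% or lower and over 25 points stronger than a control reporter; inconclusive means -10% or lower with a smaller gap; inactive means above -10%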;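 further: 0% = median of neutral control wells and -100% = median of positive control wells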
DUX4 txn inh difference: recorded beside DUX4 txn inh, whose call it bears; Gaussia minus Italica difference, %; measured here: selective DUX4 reporter inhibition;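 worked out from the two reporters; negative = selective loss of the DUX4 reporter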
DUX4 txn inh control: also measured in DUX4 txn inh; calls as there; activity change, negative = inhibition, %; measured here: Italica tet-on control reporter;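 0 = neutral control and -100 = positive control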
* hit, by the source's call; ? = inconclusive; . = no result given.

SMILES	DUX4 txn inh	DUX4 txn inh difference	DUX4 txn inh control
COc1ccc(CNC(=O)c2cc3c(c(-c4cccc(-c5ccc(C#N)cc5)c4)n2)[C@H](CCO)N([S@@](=O)C(C)(C)C)C3)cc1	-4.4	-2.8	-1.6
O=C(Nc1cc(F)ccc1F)N1CC(=O)N2[C@H](C1)[C@H](c1ccc(C#CC3CCCCC3)cc1)[C@@H]2CO	1.6	3.5	-1.9
CNC(=O)C[C@H]1CC[C@H]2[C@H](COc3ccc(NC(=O)c4cscn4)cc3C(=O)N2C)O1	7.9	-0.6	8.5
O=C(NC1CCC1)[C@H]1[C@H](CO)[C@H]2Cn3c(ccc(C4=CCCCC4)c3=O)[C@H]2N1C(=O)C1CCOCC1	-1.0	-6.8	5.7
Cc1cccc(-c2ccc([C@@H]3[C@@H](CO)N4C(=O)CN(C(=O)c5ccccc5)C[C@H]34)cc2)c1	1.5	1.0	0.5
O=C(Cc1ccccc1)N1CC[C@@H]2[C@H]1c1cc(-c3ccccc3F)ccc1N[C@@H]2CO	-2.3	9.1	-11.4
CO[C@@H](CN(C)C(=O)c1ccc2c(c1)OCO2)[C@@H](C)CN([C@H](C)CO)S(=O)(=O)c1ccccc1	-0.7	-0.9	0.2
CO[C@@H]1CN(C)C(=O)c2ccc(NC(=O)c3cccc(F)c3)cc2OC[C@H](C)N(CC2CC2)C[C@H]1C	-6.3	-6.4	0.1
CC(=O)N(C)C[C@H]1Oc2cc(C#Cc3ccc(F)cc3)ccc2S(=O)(=O)N([C@@H](C)CO)C[C@@H]1C	-2.5	-2.7	0.1
O=C(c1ccccn1)N1C[C@H]2[C@@H](c3ccccc31)[C@@H](CO)N2C(=O)C1CCCCC1	0.0	1.2	-1.2
CO[C@H]1CN(C)C(=O)c2ccc(NC(=O)c3cccc(F)c3)cc2OC[C@H](C)N(C(C)=O)C[C@H]1C	6.2	8.8	-2.5
C[C@@H]1CN([C@H](C)CO)C(=O)CCCn2cc(nn2)CO[C@H]1CN(C)S(=O)(=O)c1ccc2ccccc2c1	-6.9	-7.6	0.6
C[C@H](CO)N1C[C@H](C)[C@@H](CN(C)C(=O)Nc2cccc(C(F)(F)F)c2)OCc2ccccc2-c2ccccc2C1=O	0.0	-5.7	5.7
O=C(C[C@H]1CC[C@@H]2[C@H](COC[C@H](O)CN2Cc2ccc(Cl)cc2)O1)NCc1cccc(F)c1	?	.	.
COCC(=O)N1CC2(CN(C(=O)c3cccnc3)C2)c2c([nH]c3cc(OC)ccc23)[C@H]1CO	19.2	10.1	9.2
COc1ccc2c3c([nH]c2c1)[C@@H](CO)N(C(=O)c1cnccn1)CC31CN(S(C)(=O)=O)C1	15.0	5.3	9.7
CCCNC(=O)NC[C@H]1[C@@H](c2ccc(C3=CCCCC3)cc2)[C@H](CO)N1C(C)=O	-1.0	-1.2	0.2
C[C@H](CO)N1C[C@H](C)[C@H](CN(C)Cc2cccc(C(=O)O)c2)OCc2cnnn2CCCC1=O	1.3	-3.6	4.9
C[C@@H]1CN([C@@H](C)CO)C(=O)CCCn2nncc2CO[C@@H]1CN(C)Cc1ccccc1C(F)(F)F	?	.	.
CCC(=O)N1CC2(C1)[C@@H](c1ccccc1)[C@H](CO)N2C(=O)c1cccnc1	-2.1	4.4	-6.5
COc1ccc(NC(=O)Nc2ccc3c(c2)[C@@H]2C[C@@H](CC(=O)NCC4CC4)O[C@H](CO)[C@@H]2O3)cc1	-1.2	-3.9	2.7
CO[C@H](CN(C)S(=O)(=O)c1ccc(C)cc1)[C@@H](C)CN(Cc1ccccc1Cl)[C@@H](C)CO	2.3	0.0	2.3
C[C@@H]1CN([C@H](C)CO)C(=O)c2cc(N(C)C)ccc2O[C@@H]1CN(C)S(=O)(=O)c1cn(C)cn1	-0.3	-11.3	11.1
CNC(=O)C[C@@H]1CC[C@@H]2[C@H](COC[C@H](O)CN2S(=O)(=O)c2cccc(Cl)c2)O1	6.5	9.9	-3.4
CCCN1CC2(C1)CN(C(=O)CN1CCOCC1)[C@H](CO)c1c2c2ccc(OC)cc2n1C	3.9	0.7	3.2
Going on with the list:
SMILES	DUX4 txn inh	DUX4 txn inh difference	DUX4 txn inh control
Cn1cnc(S(=O)(=O)N2C[C@H](O)COC[C@@H]3O[C@H](CC(=O)NC4CCC4)CC[C@H]32)c1	2.9	-0.4	3.4
CO[C@@H]1CN(C)C(=O)c2ccc(NC(=O)Nc3cccc(F)c3)cc2OC[C@H](C)N(C(=O)Nc2c(C)noc2C)C[C@@H]1C	-2.0	-0.6	-1.4
CN(C[C@@H]1N[C@H](CO)[C@@H]1c1ccc(C2=CCCC2)cc1)S(C)(=O)=O	0.2	-4.9	5.0
CCOC(=O)N(C)C[C@@H]1OCc2cnnn2CCCC(=O)N([C@H](C)CO)C[C@@H]1C	2.4	3.1	-0.7
CC=Cc1ccc2n(c1=O)C[C@@H]1[C@@H](CO)[C@H](C(=O)NCCc3cn(C)cn3)[C@H]2N1C(=O)C1CCC1 (mixture of isomers)	-3.6	-20.9	17.3
C[C@H]1CN([C@@H](C)CO)C(=O)Cc2cc(N(C)C)ccc2O[C@H]1CN(C)C(=O)NC1CCCCC1	-4.2	-2.3	-1.9
CO[C@H]1CN(C)C(=O)c2ccc(NS(=O)(=O)c3cccc(F)c3)cc2OC[C@@H](C)NC[C@@H]1C	0.4	0.6	-0.2
N#C[C@@H]1[C@H](c2ccccc2)[C@H](CO)N1C(=O)CN1CCOCC1	-3.7	-4.3	0.5
CC=Cc1ccc2n(c1=O)C[C@H]1[C@H](CO)[C@@H](C(=O)N3CCCCC3)N(CC3CC3)[C@@H]21 (mixture of isomers)	5.4	4.6	0.8
C/C=C/c1ccc2c(c1)O[C@@H](CN(C)CC1CCOCC1)[C@H](C)CN([C@H](C)CO)S2(=O)=O	-2.1	-0.8	-1.2
COc1ccccc1-c1cnc2c(c1)C(=O)N([C@@H](C)CO)C[C@@H](C)[C@@H](CN(C)C(=O)CC1CC1)O2	-2.8	-2.8	0.1
C[C@H](CO)N1C[C@H](C)[C@H](CN(C)C(=O)NC2CCCCC2)Oc2c(NC(=O)c3cnccn3)cccc2C1=O	0.7	0.9	-0.2
O=C(Nc1cccc(F)c1)N1C[C@H]2[C@@H](c3ccccc31)[C@@H](CO)N2C(=O)c1ccccc1F	1.5	5.7	-4.2
COc1ccc(CNC(=O)C[C@H]2C[C@@H]3c4cc(NC(=O)CN(C)C)ccc4O[C@@H]3[C@@H](CO)O2)cc1	-5.0	-1.4	-3.7
CN1[C@H](C(=O)N2CCCCC2)[C@@H](CO)[C@@H]2Cn3c(ccc(/C=C/c4ccccc4)c3=O)[C@@H]21	4.4	6.8	-2.3
COCC#Cc1ccc([C@@H]2[C@@H](CO)N3CCCCN(Cc4cccnc4)C[C@H]23)cc1	9.3	2.4	6.9
O=C(C1CCCCC1)N1CC2(C1)[C@H](c1ccccc1)[C@@H](CO)N2C(=O)c1cccnc1	4.8	0.1	4.7
CN(C)CC#Cc1ccc([C@@H]2[C@@H](CO)N3CCCCN(C(=O)CN(C)C)C[C@H]23)cc1	19.0	19.0	0.0
COCC(=O)Nc1ccc2c(c1)OC[C@H](C)N(C(=O)CC1CC1)C[C@H](C)[C@H](OC)CN(C)C2=O	-2.3	-1.7	-0.6
O=C(C[C@H]1CC[C@@H]2[C@H](COC[C@@H](O)CN2C(=O)Nc2cccc(F)c2)O1)NCc1ccccc1F	-8.9	-5.9	-3.0
COc1ccccc1CN1C[C@H](C)[C@H](OC)CN(C)C(=O)c2ccc(NC(C)=O)cc2OC[C@H]1C	-0.5	-11.3	10.8
N#C[C@H]1[C@@H](c2ccccc2)[C@H](CO)N1C(=O)Nc1cccc(F)c1	-0.6	0.9	-1.6
Cc1noc(C)c1NC(=O)Nc1cccc2c1O[C@H](CN(C)C(=O)Nc1ccc3c(c1)OCO3)[C@H](C)CN([C@H](C)CO)C2=O	-0.6	-0.8	0.2
C[C@@H](O)C#Cc1ccc([C@@H]2[C@@H](CO)N3CCCCN(C(=O)c4cccc(F)c4)C[C@@H]23)cc1	3.4	2.9	0.5
O=C(O)C[C@@H]1C[C@H]2c3cc(NC(=O)Cc4ccncc4)ccc3O[C@H]2[C@H](CO)O1	4.9	1.0	3.8
Later entries:
SMILES	DUX4 txn inh	DUX4 txn inh difference	DUX4 txn inh control
COc1ccc(S(=O)(=O)Nc2ccc3c(c2)C(=O)N([C@@H](C)CO)C[C@@H](C)[C@H](CN(C)S(=O)(=O)c2ccc(Cl)cc2)OCCCC[C@@H](C)O3)cc1	2.3	6.7	-4.4
C[C@@H]1CN([C@@H](C)CO)C(=O)c2cc(NC(=O)c3ccncc3)ccc2O[C@H]1CN(C)S(=O)(=O)c1ccc(Cl)cc1	1.3	-5.7	7.0
CCN1[C@H](C(=O)OC)[C@@H](CO)[C@@H]2Cn3c(ccc(-c4cccc(OC)c4)c3=O)[C@@H]21	-2.2	0.9	-3.1
CS(=O)(=O)N1[C@@H]2c3ccc(-c4ccccc4)c(=O)n3C[C@H]1[C@H](CO)[C@H]2C(=O)NCC1CC1	8.1	-1.3	9.4
C/C=C/c1ccc([C@@H]2[C@H](CO)N(C(=O)c3cnccn3)C23CN(C(C)=O)C3)cc1	3.0	-1.2	4.2
O=C(C[C@H]1CC[C@@H]2[C@H](COC[C@@H](O)CN2S(=O)(=O)c2cccc(Cl)c2)O1)N1CCCCC1	2.4	1.7	0.7
CC(C)C[C@H]1COCc2cn(nn2)CC[C@H](Cc2ccccc2)C(=O)N1	5.6	-1.2	6.8
Cc1noc(C)c1NC(=O)N(C)C[C@@H]1Oc2ccc(N(C)C)cc2CC(=O)N([C@@H](C)CO)C[C@@H]1C	0.0	-3.5	3.5
CC=Cc1ccc2n(c1=O)C[C@H]1N[C@@H]2[C@@H](C(=O)NCc2ccc3c(c2)OCO3)[C@@H]1CO (mixture of isomers)	-0.8	-0.6	-0.3
COCC#Cc1ccc([C@@H]2[C@@H](CO)N3CCCCN(C(=O)NC4CCCC4)C[C@H]23)cc1	18.8	6.9	11.9
CCC(=O)N1CC2(C1)[C@H](c1ccc(-c3cccc(C)c3)cc1)[C@@H](CO)N2S(C)(=O)=O	-0.5	-0.3	-0.2
C[C@H](CO)N1C[C@H](C)[C@H](CN(C)C(=O)NC2CCCCC2)Oc2ccc(NC(=O)Cc3ccccc3)cc2C1=O	-1.9	-4.9	3.0
CCCC(=O)Nc1ccc2c(c1)C(=O)N(C)[C@H]1CC[C@@H](CC(=O)NC3CCCC3)O[C@H]1CO2	0.1	-1.5	1.6
C[C@@H]1CN([C@@H](C)CO)C(=O)Cc2cc(NC(=O)Nc3ccc(F)cc3)ccc2O[C@H]1CN(C)S(C)(=O)=O	-0.2	2.4	-2.6
O=C(c1cnccn1)N1CC(=O)N2[C@H](CO)[C@H](c3ccc(-c4cccc(F)c4)cc3)[C@H]2C1	2.5	5.9	-3.4
CCS(=O)(=O)Nc1ccc2c(c1)C(=O)N(C)C[C@H](OC)[C@H](C)CN(C(=O)C1CCC1)[C@H](C)CO2	2.4	-2.1	4.5
CCN1[C@@H]2c3ccc(-c4cccc(C(=O)N(C)C)c4)c(=O)n3C[C@@H]2[C@@H](CO)[C@@H]1C(=O)N(C)C	7.8	7.0	0.8
C[C@H](CO)N1C[C@H](C)[C@@H](CN(C)Cc2cccnc2)Oc2cc(C#CC3CCCCC3)ccc2S1(=O)=O	1.5	-0.4	1.9
N#C[C@@H]1[C@H](c2ccccc2-c2ccccc2)[C@H](CO)N1C(=O)Cc1cccnc1	10.4	0.9	9.5
CCS(=O)(=O)N(C)C[C@@H]1N[C@H](CO)[C@@H]1c1ccc(C#CC2CCCC2)cc1	-1.3	-1.6	0.3
C[C@@H]1CCCCO[C@@H](CN(C)Cc2ccc(C(F)(F)F)cc2)[C@H](C)CN([C@@H](C)CO)C(=O)c2cc(NC(=O)Nc3cccc4ccccc34)ccc2O1	-2.0	0.8	-2.8
O=C(C[C@@H]1C[C@H]2c3cc(NC(=O)c4ccc5c(c4)OCO5)ccc3O[C@H]2[C@@H](CO)O1)NCc1cccnc1	6.9	4.7	2.2
Cc1noc(C)c1NC(=O)NCC[C@@H]1CC[C@@H](NC(=O)Cc2cccnc2)[C@@H](CO)O1	-3.5	-3.9	0.3
O=S(=O)(c1ccc(F)cc1)N1CC[C@@H]2[C@H](CO)Nc3ccc(-c4ccc(F)cc4)cc3[C@@H]21	?	.	.
COc1ccc2c3c([nH]c2c1)[C@@H](CO)N(C(=O)c1cnccn1)CC31CCN(S(C)(=O)=O)CC1	21.4	25.8	-4.3
CNC(=O)C[C@@H]1CC[C@@H]2[C@@H](COc3ccc(NC(=O)c4cccc(OC)c4)cc3C(=O)N2C)O1	3.4	-3.3	6.7
CCNC(=O)C[C@@H]1CC[C@H]2[C@H](COc3ccc(NC(=O)C4CCCCC4)cc3C(=O)N2C)O1	3.0	2.5	0.5

Six entries from above in a different format:
DUX4 txn inh	DUX4 txn inh difference	DUX4 txn inh control	Compound
10.4	0.9	9.5	N#C[C@@H]1[C@H](c2ccccc2-c2ccccc2)[C@H](CO)N1C(=O)Cc1cccnc1
-1.3	-1.6	0.3	CCS(=O)(=O)N(C)C[C@@H]1N[C@H](CO)[C@@H]1c1ccc(C#CC2CCCC2)cc1
-2.0	0.8	-2.8	C[C@@H]1CCCCO[C@@H](CN(C)Cc2ccc(C(F)(F)F)cc2)[C@H](C)CN([C@@H](C)CO)C(=O)c2cc(NC(=O)Nc3cccc4ccccc34)ccc2O1
6.9	4.7	2.2	O=C(C[C@@H]1C[C@H]2c3cc(NC(=O)c4ccc5c(c4)OCO5)ccc3O[C@H]2[C@@H](CO)O1)NCc1cccnc1
-3.5	-3.9	0.3	Cc1noc(C)c1NC(=O)NCC[C@@H]1CC[C@@H](NC(=O)Cc2cccnc2)[C@@H](CO)O1
?	.	.	O=S(=O)(c1ccc(F)cc1)N1CC[C@@H]2[C@H](CO)Nc3ccc(-c4ccc(F)cc4)cc3[C@@H]21

These rows are one share of the data; rates above refer to the full screens.
